# HPGD block: qHTS Assay for Inhibitors of HPGD (15-Hydroxyprostaglandin Dehydrogenase); Potency, µM, for inactives: at the top dose activity change, negative = inhibition, actives largely listed as inhibitors; purified HPGD, NADH fluorescence kinetic, PGE2 substrate; 15-hydroxyprostaglandin dehydrogenase [NAD(+)] (Homo sapiens), P15428; hit rate 4.3% among 150,000; active = well fitted inhibition curve with a large enough effect (not every such curve was filed as active); inconclusive = small, poorly fitted or top-dose-only effect, or another doubt; inactive = no such curve, though single readings can be large or run the other way;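 also: top concentration of the series not given in the record; plate controls included wells without enzyme; inactives centre near -10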
# Target sequence (P15428 whole entry, looked up): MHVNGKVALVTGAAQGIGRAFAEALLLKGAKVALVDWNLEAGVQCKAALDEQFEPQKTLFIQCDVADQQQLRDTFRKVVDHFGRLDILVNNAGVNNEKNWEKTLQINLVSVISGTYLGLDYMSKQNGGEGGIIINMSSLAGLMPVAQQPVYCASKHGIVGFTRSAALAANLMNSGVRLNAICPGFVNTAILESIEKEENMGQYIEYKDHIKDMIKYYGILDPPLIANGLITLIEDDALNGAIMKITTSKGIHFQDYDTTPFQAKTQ
#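 20 nM HPGD preincubated 15 min at room temperature with compound in 50 mM Tris-HCl pH 8, 0.01% Tween 20. Started with 1 mM NAD+ and 30 uM prostaglandin E2; NADH fluorescence (360/450 nm) read 5 times over 30-s intervals, last minus first.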
# * = called active by the depositor; ? = inconclusive; & = joins results of further samples. % is scaled to controls: 0 for no effect and ±100 for the full control effect; potency is read from the fitted curve at half-maximal effect. This is a subset (hit frequency here may not be typical).
HPGD block	Structure
-7%	COc1cc2c(cc1OC)CN(C(=O)CSc1n[nH]c(N)n1)CC2
-5%	Cc1cc(NC(=O)c2noc3c2CCCC3)n(-c2ccccc2)n1
-9%	CC(C)[C@H](NS(=O)(=O)c1cccc(Cl)c1)C(=O)OCC(=O)N1CCN(c2ccccc2)CC1
-11%	C=CCOC(=O)C1=C(C)NC(SC)=C(C#N)C1c1cccs1 (centres undefined)
-12%	c1nc2nc3c(c(N4CCOCC4)n2n1)CCCC3
-7%	COc1ccc(NC(=O)CN(c2cc(C)cc(C)c2)S(=O)(=O)c2c(C)noc2C)cc1OC
-4%	Cc1ccc(NC(=O)COC(=O)CNC(=O)c2cccc([N+](=O)[O-])c2)cc1S(=O)(=O)N1CCCCCC1
2%	COc1ccc(NC(=O)CSc2nnc(Cc3cccn3C)n2-c2ccc(F)cc2)cc1
?	COc1ccc(Cl)cc1NC(=S)NCc1ccccn1
-15%	C=CCn1c(CNc2ccc(C)cc2)nnc1SCC(=O)N/N=C/c1ccc(O)cc1
-7%	CC[C@H](C)[C@@H]1O[C@]2(CC[C@@H]1C)C[C@H]1C[C@H](CC=C(C)[C@@H](O[C@@H]3C[C@H](OC)[C@H](O[C@@H]4C[C@H](OC)[C@H](O)[C@H](C)O4)[C@H](C)O3)[C@@H](C)C=CC=C3CO[C@@H]4[C@@H](O)C(C)=C[C@@H](C(=O)O1)[C@]34O)O2
-16%	O=C(Nc1nc2ccccc2s1)C1CCCN1S(=O)(=O)c1ccc(Cl)cc1 (centres undefined)
2%	COc1ccccc1NC(=O)CCC(=O)Nc1nnc(C(F)(F)F)s1
-15%	Cc1ccccc1-c1nc(NCCN2CCOCC2)c2ccccc2n1
1%	CC(C)Nc1nc(NC(C)C)nc(C(N)=O)n1
-9%	Cc1ccc2nc3c(nc2c1)-c1ccccc1C3=O
-28%	CC(=O)NC(NC(=S)Nc1ccc(N=Nc2ccccc2C)cc1C)C(Cl)(Cl)Cl (centres undefined)
-15%	O=C(CCn1cnc(-c2ccccc2)c1-c1ccccc1)N/N=C/c1ccc(O)cc1
-9%	Cc1nnn(-c2nonc2N)c1C(=O)N/N=C/c1ccccc1O
-8%	CSc1nsc(SC)c1NC(=O)N1CCCCC1
19%	C=C1CC/C=C(\C)CC[C@@H]2[C@@H]1CC2(C)C
-2%	COc1ccc(C(C)=O)cc1CSc1nnc(C)n1-c1ccccc1
-16%	COc1cc(N)ccc1NC(=O)c1cccs1
-5%	COc1cccc(Nc2ncc3nc(-c4ccc(Cl)cc4)c(=O)n(CCC#N)c3n2)c1
-15%	O=C(Cn1cnc2c(nnn2Cc2ccc(F)cc2)c1=O)NCC1CCCO1 (centres undefined)
-5%	CCC(=O)Nc1cc(Cl)ccc1N1CCN(C(=O)CC)CC1
0%	Nc1cc(Cl)c(N)cc1Cl
-9%	CCOC(=O)N1CCN(C(=O)c2ccccc2Oc2ccccc2)CC1
-29%	c1ccc2c(N3CCNCC3)nc(-c3ccc4c(c3)OCO4)nc2c1
-2%	O=C(N/N=C/C=C\c1ccccc1[N+](=O)[O-])c1cc(-c2ccccc2)nc2ccccc12

# Next structures.
HPGD block	Structure
?	COCCN(CCOC)c1nc(C)nc2c1nc(-c1ccccc1)n2CCCN1CCCCC1C (centres undefined)
-12%	Cc1ccnc(N2C(=O)c3ccccc3C2Nc2ccccc2Cl)c1 (centres undefined)
-9%	Cc1cc(C)cc(O)c1
0%	O=C(c1ccccc1)C(C(=O)N1CCc2ccccc2C1)n1ccccc1=O (centres undefined)
-7%	Cc1ccc2c(c1)N(CCCC(=O)NCc1ccc3c(c1)OCO3)C(=O)CO2
?	O=C(Nc1cn(-c2ccccc2)nc1-c1ccc(Cl)cc1)c1ccccc1
-4%	C=C(C)c1cccc(C(C)(C)NC(=O)NC2CCCC2)c1
-4%	COc1ccc2c(c1)C(c1ccc(N3CCOCC3)cc1)=NNC(c1cccnc1)=N2
-9%	O=C(Nc1ccccc1Cl)N1CCN(c2ncccn2)CC1
10µM*	CNC(CC(=O)c1ccc([N+](=O)[O-])cc1)C(Cl)(Cl)Cl (centres undefined)
-2%	Cc1ccc(C)c(N2CCN(CC3CC=CCC3)CC2)c1 (centres undefined)
-1%	CCOC(=O)c1ccc(NC(=O)NC2CC3CCC(C2)N3Cc2nnnn2C(C)(C)C)cc1 (centres undefined)
2%	COCC(=O)Nc1nc2ccc(C)cc2s1
-24%	CCCCOc1ccc(C(=O)Nc2ccc(S(=O)(=O)Nc3cc(C)on3)cc2)cc1OC
-12%	[O-][n+]1cccc2ncc3cscc3c21
-20%	COC(=O)C1=C(O)/C(=C\c2cc(C)n(-c3ccccc3C)c2C)N=C1C
-4%	COc1ccc(C(=O)N2CCN(C(=O)Cc3ccccc3)CC2)cc1OC
-7%	COc1ccc(CCCC(=O)NC(C)c2ccccc2)cc1 (centres undefined)
2%	CCN(CC)CCCCOc1ccccc1OC
-4%	COc1cc(C(=O)Nc2cnc(NC(=O)C(C)C)cc2C)cc(OC)c1OC
-3%	COc1ccc(CCC(=O)Nc2nc3ccccc3[nH]2)cc1
-8%	CCCCOc1ccc(C2C(=O)N(C3CCCCC3)CC(=O)N2CC2CCCO2)cc1 (centres undefined)
?	Cc1c(Cc2ccccc2)c(=O)oc2c(C)c(OCc3nn[nH]n3)ccc12
-18%	CC(CN(C)Cc1ccccc1)OC(=O)C1COc2ccccc2O1 (centres undefined)
0%	O=C(CSc1n[nH]c(-c2ccccc2Br)n1)NC(=O)NCc1ccco1
2%	Cc1nnc(SCC(=O)NCc2ccc3c(c2)OCO3)s1
-28%	COc1ccc(C(C)NC(=O)Cc2ccc(Br)cc2)cc1 (centres undefined)
-8%	CC(=O)Nc1ccc(NC(=S)Nc2ccccc2)cc1
-11%	O=C1/C(=C\c2cccnc2)Sc2ccccc21
-26%	CC(C)c1ccc(NC(=O)CCNS(=O)(=O)c2cccc3nonc23)cc1

# Entries from the list above with a nitro group on carbon, in the order listed:
HPGD block	Structure
-4%	Cc1ccc(NC(=O)COC(=O)CNC(=O)c2cccc([N+](=O)[O-])c2)cc1S(=O)(=O)N1CCCCCC1
-2%	O=C(N/N=C/C=C\c1ccccc1[N+](=O)[O-])c1cc(-c2ccccc2)nc2ccccc12
10µM*	CNC(CC(=O)c1ccc([N+](=O)[O-])cc1)C(Cl)(Cl)Cl (centres undefined)

# Records listed so far that bear a hit mark in HPGD block.
HPGD block	Structure
10µM*	CNC(CC(=O)c1ccc([N+](=O)[O-])cc1)C(Cl)(Cl)Cl (centres undefined)

# 2 neighbouring compounds already listed, for reference:
HPGD block	Structure
-7%	COc1cc2c(cc1OC)CN(C(=O)CSc1n[nH]c(N)n1)CC2
-5%	Cc1cc(NC(=O)c2noc3c2CCCC3)n(-c2ccccc2)n1

# New compounds follow.
HPGD block	Structure
-14%	CCOc1ccc(-n2c(Cc3cc(=O)[nH]c(=O)[nH]3)nnc2SC(C)C)cc1
-11%	COc1ccc(Cn2c(CCC(=O)Nc3ccccc3)nc3cccnc32)cc1
-26%	CSc1nc(-c2ccccc2)nn1C(=O)c1ccc(C)cc1
-22%	CCOC(=O)CCC(=O)NCc1ccc2[nH]c(C)cc2c1
-10%	O=S(=O)(Nc1nnc(-c2ccccc2)s1)c1ccc(Cl)cc1
?	COCc1nc(-c2ccc(-c3ccc(OC)cc3)nc2OC)no1
?	N#C/C(=C/c1ccc(-c2ccc(S(N)(=O)=O)cc2)o1)c1nc2ccccc2s1
1%&-7%	COc1ccc(-c2cn(-c3ccccc3)c3[n+]2CCS3)cc1
-11%	Cc1ccc(-n2c(C)cc(/C=N/NC(=O)c3ccc(CN4CCOCC4)cc3)c2C)cc1
1%	O=C(CN1C(=O)c2ccccc2C1=O)N1CCN(c2ccccc2)CC1
-27%	C(=N\n1cnnc1)/c1ccc(N2CCOCC2)s1
-5%	CCC(C)c1ccccc1NC(=O)Cc1coc2cc3c(cc12)CCC3 (centres undefined)
-17%	O=C(COc1ccccc1)Nc1nnc(-c2ccccc2)o1
3%	COC(=O)C1CCN(C(=O)COC(=O)CC(NC(C)=O)c2ccccc2)CC1 (centres undefined)
3%	CN(CC(=O)O)S(=O)(=O)c1ccc(F)cc1
-4%	Cc1c(NC(=S)NC(NC(=O)CC(C)C)C(Cl)(Cl)Cl)c(=O)n(-c2ccccc2)n1C (centres undefined)
?	Cc1nc2ccc(NC3=NCCCCC3)cc2s1
1%	CC1(C)[C@@H](OC(=O)CCC(=O)O)CC[C@@]2(C)[C@H]1CC[C@@]1(C)[C@H]2C(=O)C=C2[C@H]3C[C@](C)(C(=O)O)CC[C@]3(C)CC[C@@]21C
-6%	CC1(C)Oc2ccc(C(=O)N3CCc4ccccc43)cc2N(CC(=O)N2CCCC2)C1=O
-1%	CCN(CC)S(=O)(=O)c1cccc(-c2nnc(SC(C)C#N)n2Cc2ccccc2)c1 (centres undefined)
-17%	CCOc1ccc(-n2c(SCc3ccc([N+](=O)[O-])cc3)nnc2-c2ccccc2)cc1
-10%	CN(C1CCCCC1)S(=O)(=O)c1ccc2c(c1)c(=O)c(C(=O)NCCN1CCCC1)cn2C
-7%	Cc1cccc(NC(=S)N(CCN(C)C)Cc2cc3cc(C)cc(C)c3[nH]c2=O)c1
-13%	Cc1ccc(S(=O)(=O)CNC(=S)c2ccc3ccccc3c2)cc1
-3%	CC(C)=NOc1nc(N(C)C)nc(N(C)C)n1
0%	N=c1sc2ccccc2n1-c1ccccc1
-16%	COc1ccc(-c2nnc(SCc3cccc(C)c3)n2N)cc1
-9%	COc1cccc(/C=N/NC(=O)C[n+]2ccccc2)c1OC
-17%	COc1nc(C)ccc1-c1noc(-c2ccncc2)n1
10µM*	CC1=NN(c2ccc(C)c(C)c2)C(=O)C1C(c1cccc(O)c1)C1C(=O)N(c2ccc(C)c(C)c2)N=C1C (centres undefined)

# Following part
HPGD block	Structure
-5%	O=C(COC(=O)/C=C/c1ccccc1[N+](=O)[O-])Nc1ccc(OCc2ccccc2)cc1
-13%	O=C(CN1CCc2ccccc2C1)Nc1ccccc1N1CCCCCC1
3%	COc1ccccc1NS(=O)(=O)N(C)C
-6%	O=c1oc(-c2cc3ccccc3o2)nc2sc3c(c12)CCCC3
-29%	O=C(Nc1nc2ccc(S(=O)(=O)N3CCCCC3)cc2s1)c1ccncc1
25µM*	O=C(CSc1ccc2c(c1)OCCO2)NCc1ccco1
-9%	CCOC(=O)C(C)Sc1nc(N)c(NC(=O)c2ccc(OC)c(OC)c2)c(=O)[nH]1 (centres undefined)
-28%	Cc1cccc(NC(=S)NCc2ccc3c(c2)OCO3)c1C
-7%	CCOC(=O)c1c(C)[nH]c(C(=O)OCC(=O)N2CCc3ccccc32)c1C
-10%	COCCn1c(SCC(=O)Nc2nnc(C)s2)nnc1-c1c[nH]c2ccccc12
-2%	COc1cc2c(=O)n(-c3ccc(C)cc3)c(=O)n(CC(=O)c3ccc4c(c3)OCO4)c2cc1OC
-10%	COc1ccc(C)cc1NC(=O)C1CC(=O)N(Cc2ccco2)C1 (centres undefined)
1%	O=C1NC2(CCCCCC2)N=C1c1ccc(F)cc1
-7%	CCS(=O)(=O)CCSc1nc2ccccc2o1
-5%	Nc1nonc1C(=O)NCCNCc1c(OCc2ccccc2F)ccc2ccccc12
-11%	O=C(Oc1ccc2ccccc2c1)c1ccco1
2%	O=C(Nc1nc(-c2ccncc2)cs1)c1ccco1
-3%	CCOc1ccc(C(=O)Nc2cc(C)on2)cc1
?	COc1ccc(OC)c(-c2cc(C(=O)N3CCCc4ccccc43)no2)c1
-12%	O=C(CN1CCCCC1)N/N=C/c1ccccc1OCc1ccccc1
40µM*	Cc1cc(Br)ccc1OCC(=O)N1CCCCCC1
-21%	COC(=O)c1[nH]c2cc(C)ccc2c1NC(=O)CN1CCN(c2ccccc2OC)CC1
-15%	CCc1cc(C)c(O)c(CC)n1
-10%	CC(C)C(=O)c1cn(CC(=O)N2CCCc3ccccc32)c2ccccc12
-14%	Cc1ccc(P(=O)(CSC(=N)N)c2ccc(C)cc2)cc1
-20%	CCN(CC)c1ccc(C2C3CCCCC3(O)CCN2CC(=O)N2CCCCC2)cc1 (centres undefined)
-10%	CCOC(=O)C1=C(O)/C(=C/c2ccc(OCC(=O)O)c(OCC)c2)SC1=Nc1ccc(OC)cc1
-1%	CCOc1ccccc1OCCCC(=O)N1CCN(S(=O)(=O)c2ccc(C)cc2)CC1
-29%	O=C(NC(Nc1nc2ccccc2s1)(C(F)(F)F)C(F)(F)F)c1ccccc1
-9%	O=C(Nc1ccccc1)C12CC3CC(C1)CC(n1cnc([N+](=O)[O-])n1)(C3)C2

# Taken from above:
# In HPGD block, O=C(COC(=O)/C=C/c1ccccc1[N+](=O)[O-])Nc1ccc(OCc2ccccc2)cc1 has the entry -5%
# In HPGD block, Cc1ccc(P(=O)(CSC(=N)N)c2ccc(C)cc2)cc1 has the entry -14%

# The list continues:
HPGD block	Structure
?	Cc1cc(Nc2nc3ccccc3[nH]c2=O)n(-c2ccccc2)n1
-11%	O=CN1CCc2scc[n+]2-c2ccccc21
-11%	Cc1ccc(NC(=O)CS(=O)CC(=O)NC(C)CCc2ccco2)cc1Cl (centres undefined)
-2%	Cn1c(=O)c2c(nc(NCCNc3nc4c(c(=O)n(C)c(=O)n4C)n3C)n2C)n(C)c1=O
-13%	CCn1c(SCC(=O)Nc2nonc2C)nnc1-c1ccoc1C
-28%	CC(=Nc1ccccc1)c1sc2ccccc2c1O
-1%	CCOc1ccccc1OCCCC(=O)OCC(=O)Nc1cccc(Cl)c1
